Screening data from PubChem BioAssay.
Mtb hypoxia inh – PubChem AID 1159583. M. tuberculosis hypoxia-regulated fluorescent reporter, fluorescence. fluorescence inhibition, % (test concentration not listed). 0.1% of 300,000 active;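 active means 35 to 45% if threefold the growth effect, above 45% if 1.5-fold the growth effect; inactive means the rest, general growth blockers included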;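 further: wells of about 50 µL received 100 nL stock; 0% = vehicle wells and 100% = reference inhibitor wells; whole bacteria with a GFP reporter of the hypoxia response; strong numbers were not always called active; many hits fall short of the cut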
Autofluor counter – counter-screen for toxin protease inhibitors: compound fluorescence; compound autofluorescence counterscreen, microsphere flow cytometry; stronger effect = higher value; fluorescence intensity (concentration not given with the values); 3.1% of 360,000 active; AID 624483;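 active means at least 3 SD above the mean of all compounds, about 16000 in these data; inconclusive means too few beads counted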;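 further: 100 nL of 1 mM stock went into each well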
PrP UTR inh – inhibition of PrP 5' UTR reporter expression; 0.35% of 340,000 active; AID 488862, 2010; cell-based PrP 5' UTR mRNA reporter, plate reader; inhibition, % (test concentration not listed);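 active means every replicate at 50% or more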;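 further: 0 = median of the neutral control wells; tested in H4 reporter cells; numbers are from one replicate; inactives centre near -14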
ugtP null kill – growth inhibition of ugtP-null S. aureus, primary screen, RN4220 ugtP deletion, OD600; 16 h; some inactives read as strong as hits; growth inhibition, % (concentration not given with the values); 0.54% of 330,000 active; AID 1259309, 2017;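 active means z-score under -3 and OD600 up to 0.15 on both plates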;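 further: plate controls were untreated wells for no effect and antibiotic for full effect; wells of about 80 µL received 100 nL stock; the first replicate is given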
Sa RN4220 lethal – growth inhibition of S. aureus RN4220, primary screen, OD600 | 0.33% of 330,000 active | AID 1259311, 2017 | inhibition, % (concentration not given with the values) | 16 h;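 active means z-score of -3 or lower and OD600 up to 0.18 on both plates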;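 further: plate controls were untreated cells for no effect and reference antibiotic for full effect; stock transfer was 100 nL into about 80 µL; one replicate is shown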
BJeLR viability – MLPCN primary cell-based screen for lethality selective to Ras in HRASV12 cells | BJeLR (HRASV12) viability, CellTiter-Glo ATP luminescence, 48 h; reference of the scale not given here | AID 1554, 2009 | 0.17% of 300,000 active | inhibition, % (no concentration beside the values);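 active means replicate mean above 50%; inconclusive means above 50% but judged a plate artefact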;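 further: 50 nL library stock added to about 25 µL; numbers are from one replicate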
Mtb hypoxia inh growth – second read-out of Mtb hypoxia inh, no call of its own (marks repeat the call); growth inhibition, %; measured here: M. tuberculosis growth (absorbance);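 0% = vehicle and 100% = reference antibiotic; read after six days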
Numbers without * were called inactive; u = inconclusive; x = no result given.

molecule | Mtb hypoxia inh | Mtb hypoxia inh growth | Autofluor counter | PrP UTR inh | ugtP null kill | Sa RN4220 lethal | BJeLR viability
CN(C)c1nc(C(N)=O)nc(N2CCOCC2)n1 | 8 | 11 | 10100 | -4 | -1 | 5.3 | -6
CCCN(CC(=O)Nc1cc(Cl)ccc1Cl)C(=O)/C=C/c1ccco1 | 3 | 9 | 2504 | -25 | -5 | 7.5 | -8
Cc1ccc(NC(C#N)c2ccccc2OCc2ccccc2)cc1 (stereo unspecified) | 3 | -7 | 23322* | -52 | 9 | 8.3 | 2
CC(=O)C1=C(O)CC(c2ccccc2)CC1=NCCc1c(C)[nH]c2ccc(C)cc12 (stereo unspecified) | 1 | 2 | 4442 | -14 | 17 | 11 | 11
COc1ccc(N(CC(=O)Nc2ccc(S(=O)(=O)N3CCOCC3)cc2)S(=O)(=O)c2ccc(F)cc2)cc1 | 6 | -3 | 4481 | -6 | -8 | 0.8 | -8
CN1CCN(c2ccccc2NC(=O)C(Cc2ccccc2)n2cccc2)CC1 (stereo unspecified) | 8 | 1 | 5756 | -21 | 4 | 5.9 | 1
O=C(OC1CCCCC1=O)c1cc(=O)c2ccccc2o1 (stereo unspecified) | 14 | 4 | 3823 | -8 | 1 | 1.8 | 5
CN(CCO)c1ccc(-c2n[nH]c(=O)c3ccccc23)cc1[N+](=O)[O-] | 11 | 0 | 4354 | -14 | 9 | 4.7 | 2
CC(NC(=O)CSCc1ccccc1Br)c1ccccc1 (stereo unspecified) | -2 | 3 | 2489 | -18 | 0 | -1.2 | 4
C/C(=N/NC(=O)c1ccc(C)s1)c1ccncc1 | x | x | 5908 | -44 | x | x | 13
COc1ccccc1-c1noc2ncnc(Nc3ccc4c(c3)OCO4)c12 | 7 | 10 | 4376 | -25 | 1 | 5.4 | -15
COc1ccc(C=C(c2nc3ccccc3s2)c2nc3ccccc3s2)cc1O | -1 | 2 | 11599 | -37 | 14 | 20 | -17
CC1(c2ccccn2)Nc2ccccc2-c2nc3ccccc3n21 (stereo unspecified) | 9 | 10 | 22286* | -91 | 12 | 11 | -1
CCN(CC)S(=O)(=O)c1ccc(C(=O)NCC(=O)NC2CC2)cc1 | 4 | -4 | 5381 | -22 | 12 | -0.3 | -16
Nc1nc(-c2ccc(Oc3ccccc3)cc2)c(CC(=O)O)s1 | 4 | 17 | 4797 | -13 | 2 | 4.6 | -2
COc1ccc(C(=O)Nc2ccc(NC(=O)C(C)C)nc2)cc1 | 1 | 8 | 3899 | -11 | 10 | 2.0 | -10
COCC1CCCN(Cc2cn[nH]c2-c2cc3ccccc3o2)C1 (stereo unspecified) | 7 | 2 | 4707 | 0 | 8 | -0.2 | 2
Cc1ccc2nc(/C(C#N)=C/c3ccccc3C(=O)O)[nH]c2c1 | 2 | 4 | 3396 | -9 | 8 | 5.8 | 2
Cc1cc(CN2CCC(n3nccc3NC(=O)c3ccccc3C)CC2)n[nH]1 | -2 | -4 | 4402 | -5 | -9 | -3.9 | 0
c1ccc(CNc2nc3ccccc3n3cnnc23)cc1 | 7 | 4 | 5500 | -39 | 13 | 2.3 | 1
COc1ccc(-n2c(Cc3cccn3C)nnc2SCC(=O)NCC2CCCO2)cc1 (stereo unspecified) | x | x | 6366 | -8 | 3 | -3.0 | 1
COC(=O)c1ccc(Cn2cc(C(F)(F)F)cc([N+](=O)[O-])c2=O)cc1 | x | x | 4112 | -28 | 4 | 4.4 | -7
CC(=O)N(C)/C=C1\Sc2ccccc2C1=O | x | x | 2429 | -16 | -2 | 3.3 | 0
Cc1ccc2oc(=O)c(/C=C(\O)c3cccs3)nc2c1 | -2 | 3 | 3931 | -15 | -4 | 0.9 | -2
CS/C(=N\S(=O)(=O)c1ccccc1)c1ccccc1 | x | x | 2506 | -10 | x | x | -4
N#CC1(NC(=O)CN2C(=O)c3ccccc3C2=O)CCCCC1 | 25 | 8 | u | -36 | 3 | 0.5 | x
O=C(Nc1sc2c(c1-c1nc3ccccc3[nH]1)CCCC2)C1CCCC1 | x | x | 4263 | -20 | 0 | 0.0 | 6
Nc1[nH]n(-c2ccccc2)c(=O)c1N=Nc1ccc2ncsc2c1 | 1 | -3 | 4100 | -13 | 0 | 6.1 | -1
CNC(=O)C(=O)NN=Cc1cccnc1 | -5 | 5 | x | x | 6 | 2.0 | x
CCC1CCCCN1c1nc2c(C=O)c(C)nn2c2ccccc12 (stereo unspecified) | 14 | 3 | 7824 | -6 | 6 | 2.2 | 2
CN1CCN(c2ccc(NC(=O)c3ccc([N+](=O)[O-])o3)cc2Cl)CC1 | 25 | 31 | 3741 | 4 | 101* | 99* | -1
COc1ccccc1CNC(=O)CN1c2cccc3cccc(c23)S1(=O)=O | 9 | 3 | 8108 | -27 | 3 | 8.6 | x
O=c1[nH]c2cc3c(cc2cc1CN(CCc1ccccc1)C(=S)NCCCN1CCOCC1)OCCO3 | 7 | 11 | 4269 | -19 | 7 | 0.5 | x
COc1ccc(N(C=O)C(=S)SC)cc1 | 8 | 16 | 3848 | -35 | 6 | 6.6 | -1
CCOC(=O)COC(=O)c1ccc(Oc2cc(C)nc(SC)n2)cc1 | 8 | 5 | 3335 | -18 | 12 | 6.1 | 0
Cc1ccc(NC(=O)n2ncc3c(C)cccc32)c(C)c1 | -7 | 1 | 3085 | -76 | 6 | -2.9 | -8
O=C(COC(=O)c1ccncc1)NC(=O)C1CCCCC1 | 2 | 5 | 11769 | x | 2 | 7.0 | 3
O=C(NO)c1ccc(C(=O)N(C2CCCCC2)C2CCCCC2)cc1 | 10 | 7 | 5805 | -4 | 7 | -0.8 | -4
Cc1onc(-c2c(Cl)cccc2Cl)c1NC(=O)N(C)N | 7 | 4 | 4490 | -22 | 12 | 5.3 | -9
Cc1ccc(S(=O)(=O)NCc2cn3c(C)csc3n2)cc1 | 6 | 8 | x | -18 | -2 | -2.8 | -2
CC(C)(C)c1ccc(OCC(=O)NN=Cc2ccsc2)cc1 | 6 | 1 | x | x | 5 | 1.3 | x
CCN(C(=O)CSc1nc(C)cc(=O)[nH]1)C1CCCCC1 | 10 | 3 | 3919 | -30 | 0 | 5.3 | x
Cc1cc(C)n2ncc(C(=O)Nc3ccc(Cl)c(Cl)c3)c2n1 | 3 | 7 | 2659 | -29 | -15 | -4.1 | -7
CCOc1ccc(-n2c(=S)sc3c(=O)n(-c4ccccc4)c(SC)nc32)cc1 | 0 | -1 | 3125 | -18 | 5 | -7.0 | -8
COc1cccc(-c2cc(N)nn2C(=O)Nc2ccc(Cl)cc2)c1 | 4 | -2 | 6401 | -10 | -24 | -13 | 3
CCOC(=O)C1(CC2CCCCO2)CCN(Cc2cc(F)ccc2-n2cccn2)CC1 (stereo unspecified) | 7 | 3 | 5068 | -21 | 1 | 0.7 | 0
COc1ccc(OC)c(/C=N/NC(=O)CC(=O)NCc2ccccc2)c1 | x | x | 4435 | -6 | x | x | -29
CN(C(=O)C1CCC(=O)N(C2CC2)C1)C1CCCCC1 (stereo unspecified) | -3 | 9 | 5858 | -13 | -7 | -1.4 | -4
O=C(c1ccc2c(=O)n(C3CCCC3)c(=S)[nH]c2c1)N1CCCCCC1 | -8 | 8 | 4248 | -31 | 8 | -2.1 | 17
CCOc1ccc(OCc2ccc(C(=O)Nc3cccnc3)o2)cc1 | x | x | 2045 | -44 | 11 | 0.8 | 11
CCCn1c(SCC(=O)N2CCN(C(C)=O)CC2)nc2sc3c(c2c1=O)CCC3 | 9 | 7 | 4906 | -13 | -3 | 0.8 | 3
Cc1ccccc1NC(=O)CSc1nc2scc(C)c2c(=O)[nH]1 | 0 | 1 | 4152 | -15 | 4 | 3.8 | 13
O=c1oc2ccc3ccccc3c2c2c1SC(C(F)(F)F)C2 (stereo unspecified) | x | x | 4316 | -17 | x | x | 2
O=C(Nc1nc(-c2ccc(F)c(F)c2)cs1)c1cnccn1 | -6 | -9 | 5324 | -56 | 1 | 2.0 | 0
O=C(Nc1cccs1)Nc1ccccc1Cl | x | x | 2483 | -63 | 6 | 6.5 | -3
CCOc1ccccc1NC(=O)COc1coc(CN2CCCc3ccccc32)cc1=O | 19 | 8 | u | -15 | -6 | -0.7 | 0
COc1ccc(/C=C/c2nc(S(=O)(=O)c3ccccc3)c(NCCCN(C)C)o2)cc1OC | -13 | -3 | 6612 | -8 | 1 | 2.3 | -2
COc1ccccc1OCCNC(=O)c1ccc(Br)cc1 | 6 | 9 | 3337 | x | 6 | 5.2 | 7
CC(=O)NC(=S)NNC(=O)COc1ccc(Br)cc1 | 1 | 5 | 4452 | -6 | -13 | 6.6 | x
CCn1nc(C)cc1C(=O)N1CCCC(N2CCN(c3cccc(Cl)c3)CC2)C1 (stereo unspecified) | x | x | 5906 | -10 | x | x | 0

Five of the compounds above, with two lines to a compound:
Results follow in this order: Mtb hypoxia inh | Mtb hypoxia inh growth | Autofluor counter | PrP UTR inh | ugtP null kill | Sa RN4220 lethal | BJeLR viability
Cc1ccc2oc(=O)c(/C=C(\O)c3cccs3)nc2c1
 : -2 | 3 | 3931 | -15 | -4 | 0.9 | -2
CS/C(=N\S(=O)(=O)c1ccccc1)c1ccccc1
 : x | x | 2506 | -10 | x | x | -4
N#CC1(NC(=O)CN2C(=O)c3ccccc3C2=O)CCCCC1
 : 25 | 8 | u | -36 | 3 | 0.5 | x
O=C(Nc1sc2c(c1-c1nc3ccccc3[nH]1)CCCC2)C1CCCC1
 : x | x | 4263 | -20 | 0 | 0.0 | 6
Nc1[nH]n(-c2ccccc2)c(=O)c1N=Nc1ccc2ncsc2c1
 : 1 | -3 | 4100 | -13 | 0 | 6.1 | -1

Next section.
structure | Mtb hypoxia inh | Mtb hypoxia inh growth | Autofluor counter | PrP UTR inh | ugtP null kill | Sa RN4220 lethal | BJeLR viability
CN1CCN(C2=C(Cl)C(=O)N(Cc3ccccc3)C2=O)CC1 | 7 | 1 | 9552 | -27 | 6 | 3.3 | 0
Cc1ccc2occ(CN3CC4CC(C3)c3cccc(=O)n3C4)c(=O)c2c1 (stereo unspecified) | 5 | 7 | 11053 | -7 | 3 | 4.0 | -9
CCN(CC)S(=O)(=O)c1cccc(NC(=O)COC(=O)c2cc(=O)c3ccccc3o2)c1 | 0 | 5 | 3958 | -37 | 14 | 5.7 | 1
Cc1ccc2nc(-c3ccc(NS(=O)(=O)c4ccc(F)c(F)c4)cc3)sc2c1 | 8 | 5 | 2205 | -64 | 76 | 6.9 | -14
O=C(ONC1=NCCCCC1)c1c(F)cccc1F | 8 | 15 | 3738 | 0 | 2 | 4.8 | -14
Cc1ccc(C)c(C(=O)COC(=O)c2ccc(Br)o2)c1 | -9 | -5 | 4608 | -4 | 7 | 5.0 | 2
Cc1ccc(NC(=O)c2cccs2)cc1NC(=O)c1ccc(F)cc1 | 9 | 2 | 4422 | -5 | 0 | 4.8 | 0
CC1CCC(C(C)C)C(OC(=O)COC(=O)c2ccc(N)cc2)C1 (stereo unspecified) | 2 | 4 | 2721 | -22 | 83 | 4.9 | -7
COc1cccc(C(=O)Oc2ccc(C=NNC(=O)c3ccncc3)cc2OC)c1 | x | x | x | x | -3 | -4.5 | x
CCN(CC)S(=O)(=O)c1cccc(C(=O)N/N=C/c2ccc(OC)c(O)c2)c1 | x | x | 2286 | -18 | x | x | -19
Cc1noc(C)c1COC(=O)CCN1c2ccccc2Sc2ccccc21 | -1 | -3 | 6943 | 19 | 0 | 10 | 4
NC1=NC[C@@H](Cc2ccc(O)cc2)N1CCc1cccc(F)c1 | x | x | 3937 | -9 | x | x | -3
O=C(Nc1ccc(F)cc1)Nc1cc(OCC(F)(F)F)cc(OCC(F)(F)F)c1 | 3 | 3 | 2369 | -4 | 100* | 92* | 11
CC(C)C(=O)N1CCN(c2ccccc2NC(=O)COc2ccccc2)CC1 | 15 | 14 | 3326 | 0 | 4 | -5.7 | 1
CC1CCc2nn(CC(=O)Nc3c(F)cc(F)cc3Br)cc2C1 (stereo unspecified) | x | x | 4702 | -8 | 8 | 0.9 | 0
COC(=O)Cc1cn(-c2ncc(C(F)(F)F)cc2Cl)c2ccccc12 | x | x | 5127 | -19 | 27 | 6.8 | 7
CCOC(=O)c1ccc(NS(=O)(=O)c2c(C)n(C)c(=O)n(C)c2=O)cc1 | 5 | 10 | 4158 | -3 | 7 | -2.4 | -11
C=CCNC(=O)c1onc(CSc2ccc(F)c(F)c2)c1C(=O)O | 18 | 12 | 4082 | -42 | 2 | 7.9 | 2
O=C(Cn1nnc(-c2cccs2)n1)Nc1ccccc1C(F)(F)F | 9 | 8 | 4126 | -17 | 4 | 2.9 | 4
CC(CCn1cccn1)NC(=O)CCc1nnc(C2CCCCC2)o1 (stereo unspecified) | 12 | 12 | 4561 | -18 | 7 | 6.0 | 7
